From PubChem BioAssay
AmpC nodet inh = Promiscuous and Specific Inhibitors of AmpC Beta-Lactamase (assay without detergent) | P00811 | AmpC nitrocefin hydrolysis, absorbance 480 nm, no detergent; potencies from a single point are estimates | hit rate 1.8% among 71,000 | Potency, µM (series often up to 28.7 µM), inactives show top-dose activity change, negative = inhibition; active = falling curve, for most hits resting on a single point; inconclusive = weak or doubtful change; inactive = flat or rising curve; further: % of control where 0% means no effect; about half of the hits show no inhibition at the top dose; a quarter of the inactives give rising signals
Target sequence (P00811 whole entry, looked up): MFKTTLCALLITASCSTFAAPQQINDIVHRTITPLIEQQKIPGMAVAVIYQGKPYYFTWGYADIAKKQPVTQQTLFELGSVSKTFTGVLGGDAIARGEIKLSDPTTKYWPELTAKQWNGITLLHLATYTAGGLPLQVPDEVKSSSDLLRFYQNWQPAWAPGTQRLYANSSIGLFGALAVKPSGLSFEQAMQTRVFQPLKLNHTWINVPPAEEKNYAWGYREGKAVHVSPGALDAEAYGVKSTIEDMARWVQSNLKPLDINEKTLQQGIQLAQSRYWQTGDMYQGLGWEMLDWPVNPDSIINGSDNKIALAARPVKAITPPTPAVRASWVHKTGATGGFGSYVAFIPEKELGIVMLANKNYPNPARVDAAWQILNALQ
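Enzyme, pH 7.0 phosphate. Compound titrations were pre-incubated with AmpC for 15 min at room temperature before nitrocefin (stock 800 uM) addition; product formation was recorded at 480 nm every 20 s for 4 min.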
An asterisk follows results filed as active; ? = inconclusive; ! = a repeat was not active; [ ] = another dose, or the depositor's remark. Potency means the concentration at half of the fitted maximal effect.

SMILES	AmpC nodet inh
Cc1ccnc(NC(=O)CCC2COc3ccccc3O2)c1 (stereo not drawn)	-12%
C=CCNC(=O)C1CC(=O)N(c2ccc(Br)cc2)C1 (stereo not drawn)	8%
CCCCCOC(=O)C1=C(C)Nc2nnnn2C1c1ccc(OC)c(OC)c1OC (stereo not drawn)	59%
C=C(C)Cn1c(SCC(=O)O)nc2c1c(=O)[nH]c(=O)n2C	5%
N#CC1=C(N)SC(N)=C(C#N)C1CCc1ccccc1	-11%
Cc1cc2n(n1)SC(Nc1ccccc1)N2 (stereo not drawn)	-4%
c1ccc2c(c1)Cn1c-2nc2ccccc21	-1%
CCCC(=O)Nc1ccc(-c2nc3cc(C)c(C)cc3o2)cc1	14%
CCNc1nc(N)nc(Oc2ccc(OCCOc3ccc(Cl)cc3Cl)nn2)n1	52%
CCN(CCCc1ccccc1)CCCc1ccccc1	14%[12.8 µM]

The closing four records of the section above lead into the next.
SMILES	AmpC nodet inh
c1ccc2c(c1)Cn1c-2nc2ccccc21	-1%
CCCC(=O)Nc1ccc(-c2nc3cc(C)c(C)cc3o2)cc1	14%
CCNc1nc(N)nc(Oc2ccc(OCCOc3ccc(Cl)cc3Cl)nn2)n1	52%
CCN(CCCc1ccccc1)CCCc1ccccc1	14%[12.8 µM]
CCc1nc2ccccc2c(C(=O)OCC(=O)NCCCN2CCCC2=O)c1C	35%
CN(C)Cc1ccccc1-c1nccc(N(C)Cc2ccco2)n1	28%
O=C(NC1CCCCC1)c1ccc(Br)o1	-4%
O=C1C2CCCN2C(c2cccnc2)N1c1ccc(Cl)cc1 (stereo not drawn)	16%
CN(C)S(=O)(=O)c1ccc(C(=O)Nc2ccccc2OC(F)(F)C(F)F)cc1	15%
CCOC(=O)N1CCN(c2nc(-c3ccco3)cc(C(F)(F)F)n2)CC1	42%
CCCn1c(SCC(=O)c2ccc3c(c2)OCCO3)nc2c1c(=O)n(C)c(=O)n2C	35%
CCC(C)NC(=O)Cn1cccc1C(=O)c1ccccc1 (stereo not drawn)	-1%
CCCNC(=O)C(NS(=O)(=O)c1cccc2nsnc12)c1ccccc1 (stereo not drawn)	-5%
COC(=O)C1C2C=CC3(CN(c4cccc(C)c4)C(=O)C13)O2 (stereo not drawn)	15%
FC(Cl)(Cl)Cl	-8%
O=C(c1csnn1)N1CCC2(CCCN(c3ccccn3)C2)CC1	19%
COc1ccc(C2N(C(=O)c3ccccc3)CCN2C(=O)c2ccccc2)cc1	32%
COC(=O)c1ccc2c(=O)n(CCCCCC(=O)N3CCN(c4ccc(F)cc4)CC3)c(=O)[nH]c2c1	88%
O=C(Nc1cccc(C(F)(F)F)c1)C1CCCN1S(=O)(=O)c1cccc2cccnc12 (stereo not drawn)	22%
COc1ccc(Cl)cc1NC(=O)CCN1CCN(c2ccccc2C)CC1	41%
CC(=O)Nc1ccccc1NC(=O)CN(C)S(=O)(=O)c1ccc(C)cc1	4%
CCOC(=O)c1cnc2c(Cl)c(Cl)ccc2c1N1CCN(C)CC1	118%
Cc1ccc(NC(=O)N2CCC(O)(c3ccc(Cl)cc3)CC2)cc1	22%
O=C(O)[C@@H]1C[C@H]1[C@@H](NP(=O)(c1ccccc1)c1ccccc1)c1ccccc1	1%
CCOC(=O)CSc1nc(CC)nc2ccccc12	28%
Cc1ccc(O)c(CC(C)C)n1	-11%
CCn1c(SCC(=O)Nc2nccs2)nnc1-c1ccccc1	22%
CC(C)OC(=O)c1ccc(NC(=O)C2C3CC4OC(=O)C2C4C3)cc1 (stereo not drawn)	-2%
CCOC(=O)C1CCCN(c2c(N3CCN(c4cccc(Cl)c4)CC3)c(=O)c2=O)C1 (stereo not drawn)	7%
CCc1ccc(CNc2ccc3c(c2)ncn3C)cc1	32%
CCOc1cc(C2C(C#N)=C(N)Oc3n[nH]c(CC)c32)ccc1OCCN1CCOCC1 (stereo not drawn)	65%
CC(C)=CC(=O)Nc1ccccc1C(N)=O	-10%
CCOC(=O)c1c(C)n(C)c2ccc(OCC(N)=O)cc12	12%
CCOc1cc(N2CCOCC2)c(OCC)cc1NS(=O)(=O)c1ccc(Cl)s1	75%
CC1CCN(C(=O)CN(C2CCCCC2)S(C)(=O)=O)CC1	7%
O=C(NCc1ccccn1)c1ccc(N2CCCC2=O)cc1	-8%
CSc1nc2c(c(=O)[nH]1)C(c1cccs1)C1=C(CCCC1=O)N2 (stereo not drawn)	?
CCCCOC(=O)Nc1nc(CC(=O)OCC)cs1	13%
Cc1ccc(S(=O)(=O)NC(CC(=O)NCc2ccco2)c2ccco2)cc1 (stereo not drawn)	-10%
CCCCCCCCCOc1ccc2[nH]cc(CCN)c2c1	108%
O=C(NCc1ccccc1)NC1(C(=O)N2CCN(c3ncccn3)CC2)CCCCC1	-6%
Cc1cccnc1	-7%
CCN(CC)c1ccc2cc(C(=O)Nc3cccnc3N3CCOCC3)c(=O)oc2c1	24%
Cc1ccc(C(=O)NCc2ccc(Cl)c(Cl)c2)o1	8%
O=C(Nc1nc2c(s1)CCCC2)C1CCCN1C(=O)c1cccs1 (stereo not drawn)	-2%
O=C1CC(N2CCN(C(c3ccccc3)c3ccccc3)CC2)C(=O)N1 (stereo not drawn)	62%
N#Cc1ccc(C(c2nnnn2CCc2ccccc2)N2CCCCCC2)cc1 (stereo not drawn)	11%
Cn1ccnc1SCC(=O)Nc1ccc2c(c1)COC2=O	-1%
C/C(NC1CCCCC1)=C(/C#N)C(=O)NCCN1CCOCC1	-7%
CCc1ccc2[nH]c(=O)c(CN(CCCN3CCOCC3)C(=O)Nc3ccc(F)cc3)cc2c1	141%
O=C1NCN(c2ccccc2)C12CCNCC2	-1%
Cc1ccc(N(CC(=O)NC2CCCCCC2)S(=O)(=O)c2c(C)nn(C)c2C)cc1	145%
CN1CCC2(CC1)CCN(C(=O)Oc1ccccc1)CC2	-6%
Cc1ccc2c(C(=O)CN3CCCCC3CCO)c(C)[nH]c2c1 (stereo not drawn)	2%

Compounds listed so far that contain two or more sulfur atoms, in the order listed:
SMILES	AmpC nodet inh
CCCNC(=O)C(NS(=O)(=O)c1cccc2nsnc12)c1ccccc1 (stereo not drawn)	-5%
CCn1c(SCC(=O)Nc2nccs2)nnc1-c1ccccc1	22%
CCOc1cc(N2CCOCC2)c(OCC)cc1NS(=O)(=O)c1ccc(Cl)s1	75%
CSc1nc2c(c(=O)[nH]1)C(c1cccs1)C1=C(CCCC1=O)N2 (stereo not drawn)	?
O=C(Nc1nc2c(s1)CCCC2)C1CCCN1C(=O)c1cccs1 (stereo not drawn)	-2%

Next results follow.
SMILES	AmpC nodet inh
CCCNc1ncnc2nc[nH]c12	36%
CCOC(=O)CN1CC23C=CC(O2)C(C(=O)Nc2ccc(OC)cc2OC)C3C1=O (stereo not drawn)	12%
CCOc1cccc(OCCOCCN(C)Cc2ccccc2)c1	39%
COc1ccc2cc(CCNC(=O)c3c(-c4ccccc4Cl)noc3C)c(=O)[nH]c2c1	69%
Cc1cc(C)cc(NC(=O)CCN2CC(C)OC(C)C2)c1 (stereo not drawn)	22%
CN1CCN(c2ncc3ncc(=O)n(Cc4cccs4)c3n2)CC1	-4%
COc1ccc(N2CCN(C3CC(=O)N(C)C3=O)CC2)cc1 (stereo not drawn)	5%
COc1ccc2nc(N3CCCC(O)C3)c(C#N)cc2c1 (stereo not drawn)	26%
CC(=O)C1=C(C)NC(=O)NC1c1cc(Br)ccc1OCC(N)=O (stereo not drawn)	21%
COc1ccc(NC(=O)N2CCCC3(CCN(C(=O)c4ccncc4)CC3)C2)cc1	54%
CCNc1cc2n(c(=O)n1)CCc1cc(OC)c(OC)cc1-2	-19%
CC(=NCCN1CCCCC1)c1c(O)n(Cc2ccccc2)c(=O)[nH]c1=O	8%
CC1=C(C)[N+](=O)C2CCCCC2N1[O-] (stereo not drawn)	5%
NS(=O)(=O)c1ccc(CNC(=O)C2CCCCC2)cc1	-4%
Nc1c(S(=O)(=O)c2cccs2)c2nc3ccccc3nc2n1Cc1ccc2c(c1)OCO2	?
COCCCNC(=O)c1ccc(CNS(=O)(=O)c2ccc(NC(C)=O)cc2)cc1	0%
c1ccc(-c2onc3cc4c(cc23)OCCO4)cc1	1%
COC(=O)c1ccccc1N(Cc1ccccc1)S(C)(=O)=O	11%
COC(=O)c1ccc(NC(=O)CCN2CCN(c3ccccc3)CC2)cc1	18%
C=CCSc1nnc(NC(=O)CSc2nc(CCC)cc(=O)[nH]2)s1	-20%
COc1cc(Cc2cnc(N)nc2N)cc(OC)c1OC	6.3µM*!
CCCCC(CC)COCCCN (stereo not drawn)	-2%
COC(=O)c1ccc(CSc2nncn2C)cc1	-5%
CCOC(=O)C(C)Sc1nc2c([nH]c3ccccc32)c(=O)n1C (stereo not drawn)	29%
CCOc1ccccc1NC(=O)CSc1nnc(CNC(=O)COc2ccc(Cl)cc2)o1	79%
Cc1nnc(NC(=O)CSc2ccccn2)s1	-2%
Cc1cccc(-n2c(=O)[nH]c3c(C(N)=O)nc(-c4ccccc4Cl)nc32)c1	6%
CC(C)NC(=O)N1CCC2(CC1)CCN(C(=O)c1cnccn1)CC2	3%
CC(C)(C)NC(=O)CSc1nnc(-c2ccncc2)n1Cc1ccccc1	32%
Cc1ccc(-c2nnnn2CS(=O)(=O)c2ccccc2)cc1	-7%
O=C(Nc1ccc(Cl)cn1)c1cccc(F)c1	-15%
COc1ccc(NC(=O)N2CCC3(CC2)CCN(C(=O)c2cccc(F)c2)CC3)cc1	78%
CCOC(=O)N1CCN(C(=O)c2ccc(CS(=O)(=O)c3c(Cl)cccc3Cl)o2)CC1	63%
O=C(COC(=O)C1CC2C=CC1C2)Nc1ccc2c(c1)OC(F)(F)O2 (stereo not drawn)	-12%
Cc1c(C(=O)N2CCOCC2)[nH]c2ccc(OCc3ccccc3)cc12	127%
CCCOc1ccccc1Nc1nnc(C)c(=O)[nH]1	-1%
COc1ccccc1-c1nnc(NC(=O)c2ccc(S(=O)(=O)N(C)Cc3ccccc3)cc2)o1	27%
COc1ccc(CCNc2oc(Cc3cccc4ccccc34)nc2C#N)cc1OC	42%
COC(=O)c1cnn2c3c(c(C)nc12)CCCC3	5%
O=C(CSc1nnc(Cc2ccccc2)o1)NC1CCCCC1	22%

The list goes on, overlapping the part above by two compounds.
SMILES	AmpC nodet inh
COC(=O)c1cnn2c3c(c(C)nc12)CCCC3	5%
O=C(CSc1nnc(Cc2ccccc2)o1)NC1CCCCC1	22%
COc1ccc(-c2nc(C(=O)N3CCN(C)CC3)sc2-c2ccc(OC)cc2)cc1	108%
COc1ccc(OC)c2[nH]c(=O)c(CCNS(=O)(=O)c3ccc(Cl)cc3)cc12	86%
CCCc1cc(=O)[nH]c(SCC(=O)N(C)C2CCS(=O)(=O)C2)n1 (stereo not drawn)	-9%
COCC(=O)N(Cc1cc2ccc(C)cc2[nH]c1=O)c1ccc(OC)cc1	15%
CCCNC(=O)c1c(N)n(-c2cc(OC)cc(OC)c2)c2nc3ccccc3nc12	85%
CNc1nnc(-c2ccncc2)s1	2%
O=C1c2cccc(O)c2C(=O)c2c(O)cccc21	-11%
COc1ccccc1CN1CC[C@@]2(CCCN(C(=O)c3cccc(F)c3)C2)C1	10%
CC(NC(=O)c1cccc(F)c1)C(c1cccs1)N1CCN(C)CC1 (stereo not drawn)	-10%
CCN(CC)S(=O)(=O)c1cccc(-c2nnc(SCC(=O)NC)n2CCc2ccccc2)c1	106%
Cn1c(C(=O)NCCCN2CCN(c3ccccc3F)CC2)cc2c(=O)[nH]c3ccccc3c21	74%
O=C(CN1C(=O)NC(Cc2ccccc2)C1=O)Nc1ccccc1 (stereo not drawn)	-10%
CCCCC(=O)Nc1ccc(N2CCN(S(C)(=O)=O)CC2)cc1	2%
COc1cc(OC)cc(C(=O)Nc2ccc(-n3cnnn3)c(C)c2)c1	-9%
CCOC(=O)C1=C(C)Nc2ccccc2N=C1NC(=O)c1cccc(S(=O)(=O)N(C)C)c1	46%
CCN(CC(=O)Nc1ccccc1C(=O)OC)S(=O)(=O)c1ccc(OC)cc1	27%
O=C(NCCSc1ccccc1)c1ccco1	8%
Cc1ccc(C)c(N2CCN(C(=O)CC3Sc4ccccc4NC3=O)CC2)c1 (stereo not drawn)	32%
Cc1csc(SCC(=O)c2ccc(S(=O)(=O)N3CCOCC3)cc2)n1	31%
COc1ccc(N(CC(=O)NCc2ccc3c(c2)OCO3)S(=O)(=O)c2c(C)nn(C)c2C)cc1	120%
CC(=O)NNc1ccccc1	-11%
CC(C)(C)NC(=O)COC(=O)Cc1ccc(Cl)cc1	7%
O=C(CN1CCCCC1)NCCNC(=O)CN1CCCCC1	7%
CCOC(=O)N1CCC(NC(=O)c2cc(S(=O)(=O)N3CCCC3)cn2C)CC1	32%
COc1ccc(C)cc1-n1nnnc1SCC(=O)N1CCC(C(=O)Nc2nccs2)CC1	96%
CCOC(=O)Nc1cc(OC)c(OC)cc1Cc1nccc2cc(OC)c(OC)cc12	120%
COC(=O)c1ccc(C(c2c(N)n(Cc3ccccc3)c(=O)n(C)c2=O)N2CCOCC2)cc1 (stereo not drawn)	105%
CCC(O)(CCN1CCCCC1)c1ccccc1 (stereo not drawn)	-1%
CNC(=O)CSc1nnc(-c2cc3c(C)nn(-c4ccccc4)c3s2)n1C	41%
CCCn1c(=O)c2ccccc2n2c(SCC(=O)c3cc(C)n(CCOC)c3C)nnc12	55%
Cn1cccc1Cc1nnc(SCC(=O)Nc2ccccc2F)n1CCc1ccccc1	58%
O=C(CN1C2=NCCCN2c2ccccc21)c1ccc(Br)s1	16%
CCOc1ccc(C(=O)N(CN2CCCC2=O)c2ccc(C)cc2)cc1	55%

A few values from above:
`CCOC(=O)Nc1cc(OC)c(OC)cc1Cc1nccc2cc(OC)c(OC)cc12` in AmpC nodet inh is entered as 120%
`O=C(CN1C2=NCCCN2c2ccccc21)c1ccc(Br)s1` in AmpC nodet inh is entered as 16%
`CCC(O)(CCN1CCCCC1)c1ccccc1` (stereo not drawn) in AmpC nodet inh is entered as -1%
`CCCn1c(=O)c2ccccc2n2c(SCC(=O)c3cc(C)n(CCOC)c3C)nnc12` in AmpC nodet inh is entered as 55%
`O=C(CN1CCCCC1)NCCNC(=O)CN1CCCCC1` in AmpC nodet inh is entered as 7%
`CC(=O)NNc1ccccc1` in AmpC nodet inh is entered as -11%

An excerpt; the hit share may differ from the screen's.
